PK Bst – Pyruvate Kinase | partly purified Bacillus stearothermophilus pyruvate kinase, luminescence ATP production; ribose 5-phosphate activator present at AC10 | Potency, µM | 1.2% of 51,000 active | AID 361, 2006; in the data active means potency below about 11 µM; inconclusive means mostly about 12 µM to 25 µM; inactive means weaker than that;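 the screen sought inhibitors and activators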;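 note: potency is the fitted concentration of half-maximal effect; scaled between full activation by ribose 5 phosphate and full inhibition by luteolin; about four in five hits inhibit and the cells do not say which; series up to 57 µM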
TsaE inh – qHTS Assay for Inhibitors of YjeE | AID 605, 2007 | 0.05% of 71,000 active | tRNA threonylcarbamoyladenosine biosynthesis protein TsaE (Escherichia coli (strain … | Potency, µM | purified YjeE, fluorescence polarisation of a bound ADP probe; active = well fitted falling curve; inconclusive = weaker or top-dose-only fall, or a rising curve; inactive = flat or poorly fitted curve;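 note: top concentration of the series not given in the record; excess ADP was the control for the full effect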
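Fluorescence polarization of a BODIPY Texas Red–ADP probe (2 uM) bound to purified YjeE (10 uM) was read after 15 min room-temperature incubation with compounds. Loss of polarization marks inhibitors; ADP serves as titrated control.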
The depositor's hits bear a star; i = inactive; ? = inconclusive; nt = no result given.

Sequence of screens – PK Bst | TsaE inh
> CC(C)C1N=C2c3ccccc3N=C(SCc3cc(=O)n4cc(Cl)ccc4n3)N2C1=O (configuration not stated)
 : >57 | i
> CCOc1ncccc1C(=O)OCC(=O)Nc1ncc(C(F)(F)F)cc1Cl
 : >57 | i
> COc1ccc(OC)c(NC(=O)c2nnn(CCc3ccccc3)c2N)c1
 : nt | i
> C=CCn1c(SCC(=O)N2CCCC2)nc2cc(C(=O)NCC3CCCO3)ccc2c1=O (configuration not stated)
 : >57 | i
> COc1ccc(NC(=O)NCCN2C(=O)C3C4C=CC(C4)C3C2=O)cc1 (configuration not stated)
 : nt | i
> CCOCC(=O)Nc1nnc(Cc2ccc(OC)c(OC)c2)s1
 : >57 | i
> COCCNC(=O)c1ccccc1NC(=O)C1COc2ccccc2O1 (configuration not stated)
 : >57 | i
> CN1CCN(CCCNC(=O)Cn2ncc3c4ccccc4n(C)c3c2=O)CC1
 : nt | i
> CCOC(=O)C1CCN(C(=O)CN(c2cc(OC)ccc2OC)S(=O)(=O)c2ccccc2)CC1
 : nt | i
> CCCC(=O)c1cc(O)c(O)cc1O
 : nt | i
> COc1ccc(OC)c(S(=O)(=O)Nc2ccccc2C(F)(F)F)c1
 : >57 | i
> CCN1CCCC1CNC(=O)c1cc2c(=O)n(C)c3ccccc3c2n1C (configuration not stated)
 : nt | i
> C=CCNC(=O)CSc1ccc(Cl)cc1
 : >57 | i
> COc1ccccc1-n1c(N)c(C(N)=O)sc1=S
 : >57 | i
> COc1ccc(OC)c(NC(=O)CC(NCCC2=CCCCC2)C(=O)O)c1 (configuration not stated)
 : >57 | i

Further compounds:
Sequence of screens – PK Bst | TsaE inh
> C#C[C@]1(O)CC[C@@H]2[C@H]3CCc4cc(OC)ccc4[C@@H]3CC[C@@]21C
 : nt | i
> COc1ccc(NC(=O)N2CCC(c3ccccc3)C2)c(OC)c1 (configuration not stated)
 : nt | i
> O=C(Nc1cccc(NC(=O)c2nccc3ccccc23)c1)c1ccco1
 : i | i
> COc1cc([C@@H](O)CO)ccc1OS(=O)(=O)O
 : nt | i
> CCCCCCC1/C(=N/O)CCC1C(=O)OC (configuration not stated)
 : >57 | i
> CCCS(=O)(=O)C(=C1Nc2ccccc2N1)S(=O)(=O)CCC
 : >57 | i
> CSc1nsc(SC)c1NC(=O)OC1CCCCC1
 : >57 | i
> N#Cc1cc2c(nc1SCC(O)CS(=O)(=O)Cc1ccccc1)CCCC2 (configuration not stated)
 : >57 | i
> C[C@H]1C2=C3C(CC[C@H]4C(OCc5ccc(F)cc5C(F)(F)F)OC[C@](C)([C@@H]34)N(C(=O)OC(C)(C)C)C2)C2COC(=O)OCC21 (some centres not stated)
 : nt | i
> N#CCSc1nc(Nc2ccc3c(c2)OCO3)c2ccccc2n1
 : nt | i
> Cc1cc(-c2ccco2)n2c(nc3ccccc32)c1C#N
 : >57 | i
> COc1ccc(NC(=O)Cn2nnc(-c3ccccc3F)n2)cc1Cl
 : >57 | i
> CC(=O)c1cn(CC(=O)Nc2ccccc2)c2ccccc12
 : >57 | i
> CC(=O)NC(O)C(=O)c1ccco1 (configuration not stated)
 : >57 | i
> N#Cc1cccc(-c2cncnc2-n2ccnc2)c1
 : nt | i

(list continues)
Sequence of screens – PK Bst | TsaE inh
> CCn1c(SCC(=O)c2cc(OC)ccc2OC)nnc1C(C)C
 : >57 | i
> CC(=O)[C@H]1CC[C@H]2[C@@H]3C=CC4=CC(=O)CC[C@@]4(C)[C@H]3CC[C@]12C
 : nt | i
> Nc1nnc(-c2cccnc2)s1
 : nt | i
> Cc1nn(C)c(C)c1CNC(=O)c1nn2c(c1Cl)NC(c1cccs1)CC2C(F)(F)F (configuration not stated)
 : >57 | i
> CCCCC(=O)NC1(C(F)(F)F)C(=O)N(Cc2ccco2)C(C)=C1C(=O)OC (configuration not stated)
 : >57 | i
> Cc1ccc(C(=O)Nc2ccc(S(=O)(=O)O)c3cc(S(=O)(=O)O)cc(S(=O)(=O)O)c23)cc1NC(=O)c1cccc(NC(=O)Nc2cccc(C(=O)Nc3cc(C(=O)Nc4ccc(S(=O)(=O)O)c5cc(S(=O)(=O)O)cc(S(=O)(=O)O)c45)ccc3C)c2)c1
 : nt | i
> CCN1CCC[C@H]1CNC(=O)c1c(O)c(Cl)cc(Cl)c1OC
 : nt | i
> COc1ccc(NC(=O)COC(=O)c2cnccn2)cc1Cl
 : >57 | i
> O=C(CSc1nnnn1-c1ccc2c(c1)OCO2)NCc1cccs1
 : >57 | i
> Cc1cccc(Nc2nc3c(c(=O)n(C)c(=O)n3C)n2Cc2ccccc2)c1
 : >57 | i
> C=CCSc1nc(N)c2c(C)c(C)sc2n1
 : nt | i
> CCCOn1nnnc1-c1ccccc1
 : >57 | i
> CCOC(=O)C1=C(N)N(c2ccccc2Oc2ccccc2)C(=O)C1
 : >57 | i
> CC(C)OC(=O)CSc1nnc(CNc2nc(-c3ccccc3)cs2)n1C
 : >57 | i
> Cc1cc(OCC(=O)Nc2ccc3oc(-c4ccncc4)nc3c2)ccc1Cl
 : >25.6 | nt

Additional compounds
Sequence of screens – PK Bst | TsaE inh
> CN(C)S(=O)(=O)c1ccc(C(=O)Nc2ccc(F)cc2F)cc1
 : nt | i
> O=c1cc(N2CCc3ccccc32)[nH]c(=O)n1-c1ccccc1
 : >57 | i
> N#C/C(C(=O)N1CCOCC1)=C1/SC=C(c2ccccc2)N1c1ccccc1
 : nt | i
> O=C(O)c1cccnc1Oc1ccccc1
 : >57 | i
> COc1ccccc1S(=O)(=O)Cc1ccc(C(=O)N2CCN(c3ccccn3)CC2)o1
 : nt | i
> CCn1cc(C(=O)Nc2ccc(NC(=O)c3ccco3)cc2)c(=O)c2ccc(C)nc21
 : >57 | i
> COc1cccc2cc(C(C)=O)c(=O)oc12
 : >57 | i
> NC(=O)c1c(-c2ccccc2)oc2ccc(O)cc12
 : nt | i
> O=C(c1ccc(-c2ccccc2)cc1)N1CCN(c2ncccn2)CC1
 : >57 | i
> CC(C)CC(c1nnnn1C(C)(C)C)N1CCN(C2CCCC2)CC1 (configuration not stated)
 : >57 | i
> COC(=O)c1cc(OC)c(OC)cc1NC(=O)CCCCCN1C(=O)CCC1=O
 : >57 | i
> Cn1c(=O)oc2cc(S(=O)(=O)N3CCCC3)ccc21
 : nt | i
> CCCc1ccc(C(C)NC(=O)c2cnccn2)cc1 (configuration not stated)
 : >57 | i
> O=S(=O)(Nc1nc(CN2CCOCC2)nc2sc3c(c12)CCCC3)c1cc(F)ccc1F
 : >57 | i
> CCc1c(O)c2c(c(O)c1C(C)=O)C(=O)c1c(cc(O)c(C(=O)O)c1C(=O)O)C2=O
 : nt | i

Going on with the list.
Sequence of screens – PK Bst | TsaE inh
> COc1cccc(NC(=O)c2ccccc2-c2nc(-c3ccc(F)cc3)no2)c1
 : >57 | i
> O=C(NC1(C(F)(F)F)C(=O)Nc2c1c(=O)[nH]c(=O)n2-c1ccccc1)c1cccnc1 (configuration not stated)
 : >25.6 | nt
> c1csc(-c2nc3nc4ccccc4nc3n2Cc2ccc3c(c2)OCO3)c1
 : nt | i
> CCCC(=O)Nc1cccc(C(=O)Nc2nccs2)c1
 : nt | i
> CN1CCN(CC(=O)Nc2sc3c(c2C#N)CCC(C(C)(C)C)C3)CC1 (configuration not stated)
 : >57 | i
> O=C(c1ccco1)N1CCN(C(c2ccccn2)c2nnnn2C2CCCC2)CC1 (configuration not stated)
 : >57 | i
> CCn1c(Cc2ccccc2)nnc1SCC(=O)Nc1nc(C)c(C)s1
 : >57 | i
> Cc1ccc(OCCC(=O)OCC(=O)Nc2ccc(Cl)cn2)cc1
 : >57 | i
> Cn1c(=O)oc2cc(S(=O)(=O)NCCC(=O)NC3CCCc4ccccc43)ccc21 (configuration not stated)
 : >57 | i
> COc1ccc(-c2noc(-c3ccccc3C(=O)Nc3cccnc3)n2)cc1
 : nt | i
> COc1cc2[nH]c(=S)n(NC(=O)CC(C)C)c(=O)c2cc1OC
 : >57 | i
> N#CCC(=O)N1CCn2c1nc1ccccc12
 : >57 | i
> Cc1cc2nc(SC(C)C(=O)O)[nH]c2cc1C (configuration not stated)
 : nt | i
> O=C(c1cccc(Cl)c1)N(Cc1cccs1)C1CCS(=O)(=O)C1 (configuration not stated)
 : >57 | i
> O=C(NCCN1CCOCC1)c1noc2c1CCc1ccccc1-2
 : >57 | i

Additional entries.
Sequence of screens – PK Bst | TsaE inh
> CC(C)(C)OC(=O)N1CCC[C@@H]1C(=O)N1CCC(C(=O)O)CC1
 : >57 | i
> O=C(OCC(=O)N1CCN(C(=O)c2ccco2)CC1)C1=COCCO1
 : >57 | i
> Cc1ccc(N)cc1CN1CCCC1=O
 : >57 | i
> COC(=O)N1CC=CC1(C)C(=O)NCc1cc(F)cc(C(F)(F)F)c1 (configuration not stated)
 : nt | i
> CCOc1ccc(-n2c(COc3ccccc3)nnc2SCC(N)=O)cc1
 : >57 | i
> Clc1ccc(NC2=NCCC2)cc1Cl
 : >57 | i
> CC(=O)Nc1ccc2nc(-c3cccnc3)[nH]c2c1
 : >57 | i
> CCCCn1c(N)c(N(CCC(C)C)C(=O)COC(=O)c2ccco2)c(=O)[nH]c1=O
 : >57 | i
> Cc1cc(C)nc(/N=C2\NC(=O)CC(C(=O)O)N2c2ccc(Oc3ccccc3)cc2)n1 (configuration not stated)
 : nt | i
> Cc1ccc(C)c(NC(=O)NCc2ccc(Cl)cc2)c1
 : nt | i
> COc1ccc(N2CCN(c3oc(COc4ccc(Cl)cc4Cl)nc3C#N)CC2)cc1
 : >57 | i
> CCOC(=O)CNC(=O)CSc1nc2ncc(Br)cc2[nH]1
 : >57 | i
> CC1CCN(c2nnc(N)s2)CC1
 : >57 | i
> O=C(CCCn1c(=O)[nH]c2cc(Cl)ccc2c1=O)NCCCN1CCCC1
 : >11.4 | i
> COc1ccccc1NC(=O)c1cc(S(=O)(=O)N2CCOCC2)ccc1Cl
 : >57 | i

(further entries)
Sequence of screens – PK Bst | TsaE inh
> COc1ccccc1C(c1nnnn1C(C)(C)C)N1CCCCCC1 (configuration not stated)
 : ? | i
> COCCCNC(=O)CCn1c(=O)c2ccccc2n(CC(=O)Nc2cc(Cl)ccc2C)c1=O
 : >57 | i
> CN(C)c1nc(N)nc(CSc2n[nH]c(-c3ccccc3)n2)n1
 : nt | i
> Cc1ccc(SCc2[nH]nc3c2C(c2ccc(C)o2)C(C#N)=C(N)O3)cc1 (configuration not stated)
 : >25.6 | nt
> CC(=O)Nc1ccc(C(=O)CSc2nnnn2C(C)C)cc1
 : >57 | i
> COC(=O)c1cc(NCc2ccccc2F)ccc1N1CCOCC1
 : >57 | i
> COc1ccc(NC(=O)Cn2nnc(C(=O)NCc3ccccc3)c2N)cc1Cl
 : >57 | i
> Cc1cc(=O)n2[nH]c(-c3ccccc3Cl)cc2n1
 : nt | i
> CNC(=O)c1c(I)c(C(=O)NCC(=O)Nc2c(I)c(C(=O)O)c(I)c(C(=O)NCCO)c2I)c(I)c(N(C)C(C)=O)c1I
 : nt | i
> Nc1ccc(Cl)c(NC(=O)c2cccs2)c1
 : >57 | i
> CCOc1ccc(-c2nnc(N)s2)cc1
 : nt | i
> O=C(Cn1c(=O)oc2ccccc21)NC(=O)NCc1ccco1
 : >57 | i
> CCOC(=O)c1ccc(N2C(=O)C(O)=C(C(C)=O)C2c2ccccn2)cc1 (configuration not stated)
 : >11.4 | i
> CC(=O)c1c(COC(=O)c2ccco2)nc2ccccc2[n+]1[O-]
 : >57 | i
> CC1=C(C(=O)OCc2ccccc2)C(c2ccccc2OC(F)F)NC(=O)N1 (configuration not stated)
 : nt | i

(next part)
Sequence of screens – PK Bst | TsaE inh
> CNc1nc(-c2ccccc2C(F)(F)F)nc2ccccc12
 : nt | i
> CCOC(=O)c1c(CN2CCC(C)CC2)oc2ccc(OC)cc12
 : >57 | i
> Cc1ccc(C)c(C(=O)NCCN(C)C)c1
 : >57 | i
> CC1CCC(O)([C@](C)(C(=O)O)c2ccccc2)CC1 (some centres not stated)
 : nt | i
> c1ccc(-c2ccccc2-c2nc(-c3ccncc3)no2)cc1
 : >57 | i
> Cc1ccc(CNc2oc(COc3ccccc3Cl)nc2C#N)cc1
 : >25.6 | nt
> COc1ccc(NC(=O)N2CCCC3(CCN(C(=O)c4c(C)noc4C)CC3)C2)cc1
 : nt | i
> COc1ccc(NC(C)=O)cc1NC(=O)CSc1nnc(-c2ccc(F)cc2)n1N
 : >57 | i
> Cc1ccsc1C(=O)OC1CCOC1=O (configuration not stated)
 : >57 | i
> COc1ccccc1C(=O)N1CCN(CCc2ccccc2)CC1
 : >57 | i
> CCOc1ccccc1C(=O)NC1CC2CCCC(C1)N2Cc1nnnn1Cc1ccco1 (configuration not stated)
 : >57 | i
> COC(=O)C(CC(C)C)NC(=O)CSc1nc(-c2ccccc2)c(C#N)c(=O)[nH]1 (configuration not stated)
 : >57 | i
> Cc1ccc(S(=O)(=O)N2CCCC(c3nnc4n3-c3ccccc3SC4)C2)cc1 (configuration not stated)
 : nt | i
> O=S(=O)(c1cccc(-c2csc(-c3ccccc3)n2)c1)N1CCOCC1
 : >11.4 | nt
> CC(=O)Nc1ccc(S(=O)(=O)Nc2ccc(N3CCOCC3)c(F)c2)cc1
 : >57 | i

Single records (already shown). Order of screens: PK Bst	TsaE inh
Listed for COc1ccc(NC(=O)Cn2nnc(-c3ccccc3F)n2)cc1Cl : >57	i
Listed for COc1ccc(NC(=O)COC(=O)c2cnccn2)cc1Cl : >57	i
Listed for CC(=O)c1cn(CC(=O)Nc2ccccc2)c2ccccc12 : >57	i
Listed for CNC(=O)c1c(I)c(C(=O)NCC(=O)Nc2c(I)c(C(=O)O)c(I)c(C(=O)NCCO)c2I)c(I)c(N(C)C(C)=O)c1I : nt	i
Listed for N#CCC(=O)N1CCn2c1nc1ccccc12 : >57	i

From PubChem

An excerpt; count on the stated rates, not on these rows.
